Ecoli rRNA inh: selective bacterial rRNA inhibition in E. coli. E. coli WT GFP vs humanized-ribosome RFP mutants, fluorescence, 24 h; hits give low values; DMSO median 0, no signal -100. 350,000 compounds, 1.6% hits. GFP signal change (wild-type ribosome), % (no concentration beside the values);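 active means significant combined selectivity score with lowered wild-type GFP, culture density cut under 30%, mutant RFP and density less affected; inactive means any of these conditions unmet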; further: one replicate is shown; some compounds called inactive have numbers as strong as hits
Ecoli rRNA inh OD600: further read-out of Ecoli rRNA inh, marked with its call; OD600 change, %; measured here: OD600 growth;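 optical density of the mix in the first replicate; 0 = DMSO median and -100 = no signal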
Ecoli rRNA inh RFP: further read-out of Ecoli rRNA inh, marked with its call; RFP signal change, %; measured here: RFP humanized mutant strains;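 first replicate; 0 = DMSO median and -100 = no signal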
An asterisk follows results filed as active; & = joins results of further samples. An excerpt; rates above refer to the full screens.

SMILES | Ecoli rRNA inh | Ecoli rRNA inh OD600 | Ecoli rRNA inh RFP
Cc1ccc(-c2ccc3c(c2)O[C@@H](CN(C)CC2CCCC2)[C@H](C)CN([C@@H](C)CO)S3(=O)=O)cc1 | -5.3 | -7.0 | 4.7
Cc1ccc(-c2cnc3c(c2)C(=O)N([C@H](C)CO)C[C@@H](C)[C@H](CN(C)C(=O)c2ccncc2)O3)cc1 | 0.3 | 4.1 | -1.0
N#Cc1ccc(NC(=O)COC(=O)c2cccc(S(=O)(=O)N3CCCC3)c2)cc1 | -8.2 | -10.3 | 10.8
COc1ccccc1-c1ccccc1[C@H]1[C@@H](C#N)N(C(=O)C2CC2)[C@@H]1CO | 2.9 | 12.6 | -6.8
c1ccc(OCCNc2nc(NCC3CC3)nc3ccsc23)cc1 | -12.9 | -51.1 | 2.0
O=S1(=O)CC(N2CC=CC2)CN1Cc1cn(Cc2ccc(F)cc2)nn1 (stereo unspecified) | 0.3 | 5.6 | 4.4
O=C1NC[C@@H](CCCCN2CCN(Cc3ccccc3)C(=O)C2=O)N(Cc2ccccc2)C1=O | 3.3 | 15.2 | 1.8
C[C@H](CO)N1C[C@H](C)[C@@H](CN(C)S(=O)(=O)c2cccc(F)c2)OCc2ccccc2-c2c(n(C)c3ccccc23)C1=O | 0.9 | 7.6 | -0.5
C[C@H](CO)N1C[C@H](C)[C@@H](CN(C)C)Oc2ccc(NC(=O)C3CCCCC3)cc2C1=O | 2.0 | 3.8 | 1.1
COc1ccc(C(C(=O)NCc2ccccc2)n2c(-c3ccncc3)nc3ccccc32)cc1 (stereo unspecified) | -1.7 | -4.1 | 4.0
C[C@@H]1CCCCO[C@H](CN(C)C(=O)Nc2ccc3c(c2)OCO3)[C@H](C)CN([C@H](C)CO)C(=O)c2cc(NC(=O)Nc3ccc(F)cc3)ccc2O1 | 2.9 | 3.9 | -1.7
COc1cccc(C#Cc2ccc([C@@H]3[C@@H](C#N)N(C(=O)C4CCC4)[C@@H]3CO)cc2)c1 | 0.8 | 1.0 | 2.1
CCCCC[C@@H](C)N1C[C@H](COCc2ccccc2)Oc2cc(N3CC[C@H](O)C3)ccc2S1(=O)=O | 2.9 | -6.1 | 4.3
C[C@@H]1CN([C@@H](C)CO)C(=O)Cc2cc(NC(=O)Nc3ccccc3)ccc2O[C@H]1CN(C)S(=O)(=O)c1ccccc1 | -0.8 | 13.2 | 6.0
C[C@@H]1CCCCO[C@H](CN(C)C(=O)Nc2ccccc2)[C@H](C)CN([C@@H](C)CO)C(=O)c2cc(NC(=O)Nc3cccc4ccccc34)ccc2O1 | 0.9 | 0.5 | -1.1
Cc1ccccc1-c1cccc2[nH]c3c(c12)CCN1C(=O)[C@H]2[C@H](C)ON(C)[C@H]2C[C@@H]31 | -24.5 | -60.0 | 13.2
O=C(C[C@H]1CC[C@@H](NS(=O)(=O)c2ccccc2)[C@H](CO)O1)NCc1ccc(Cl)c(Cl)c1 | -11.3 | -15.0 | 2.9
CCC(=O)Nc1ccc2c(c1)OC[C@@H](C)NC[C@H](C)[C@@H](OC)CN(C)C2=O | 1.9 | 6.2 | -1.1
C[C@@H]1CN([C@@H](C)CO)C(=O)c2cc(NS(=O)(=O)c3ccccc3)ccc2O[C@@H](C)CCCCO[C@@H]1CN(C)S(=O)(=O)c1cn(C)cn1 | -6.2 | -0.7 | -3.7
C[C@H](CO)N1C[C@H](C)[C@@H](CN(C)S(=O)(=O)c2cccs2)Oc2ccc(NC(=O)CCC(F)(F)F)cc2CC1=O | -0.7 | -2.4 | 1.5
CCc1nc2ccc(C(=O)Nc3cccc(NS(C)(=O)=O)c3)cn2c1N(C=O)CCC(C)C | -12.7 | -10.9 | -5.5
CCN(C[C@H]1[C@H](c2ccccc2)[C@@H](CO)N1S(C)(=O)=O)C(=O)C1CCC1 | 2.4 | 1.3 | 1.4
C[C@@H]1CCCCO[C@H](CN(C)C(=O)NC2CCCCC2)[C@H](C)CN([C@@H](C)CO)C(=O)c2cc(NS(=O)(=O)c3ccc(F)cc3)ccc2O1 | -2.2 | -2.5 | -0.4
C[C@H](CO)N1C[C@H](C)[C@@H](CN(C)S(=O)(=O)c2ccc(Cl)cc2)Oc2ccc(NS(=O)(=O)c3ccc(Cl)cc3)cc2C1=O | -2.1 | -14.5 | 3.1
C[C@@H]1CN([C@H](C)CO)C(=O)c2cccc(NC(=O)Nc3ccc(F)cc3)c2O[C@@H]1CN(C)CC1CCCCC1 | -2.3 | 3.1 | -0.7
C[C@H]1CN([C@@H](C)CO)C(=O)Cc2cc(NC(=O)Cc3cn(C)c4ccccc34)ccc2O[C@@H]1CN(C)C(=O)Nc1ccc(F)cc1 | 5.9 | 9.8 | -2.7
C[C@H]1CN([C@@H](C)CO)C(=O)c2cc(-c3cccnc3)cnc2O[C@@H]1CN(C)C(=O)C1CCC1 | 7.5 | 13.5 | 0.5
N#C[C@@H]1[C@H](c2ccc(C3=CCCCC3)cc2)[C@@H](CO)N1C(=O)NC1CCCCC1 | -6.6 | -1.8 | 0.7
O=C(c1cccs1)N1C[C@@H](n2cc(C3CC3)nn2)[C@H](O)C[C@@H]1c1ccc(Cl)cc1 | -0.6 | 0.7 | -2.1
COc1ccc(C(=O)NCCCNc2nc3cc(C)cc(C)c3cc2C#N)cc1 | -2.3 | -3.1 | -0.1

Three entries out of the list, ordered by number of heavy atoms, smallest number first.
SMILES | Ecoli rRNA inh | Ecoli rRNA inh OD600 | Ecoli rRNA inh RFP
CCN(C[C@H]1[C@H](c2ccccc2)[C@@H](CO)N1S(C)(=O)=O)C(=O)C1CCC1 | 2.4 | 1.3 | 1.4
O=C(c1cccs1)N1C[C@@H](n2cc(C3CC3)nn2)[C@H](O)C[C@@H]1c1ccc(Cl)cc1 | -0.6 | 0.7 | -2.1
C[C@@H]1CN([C@@H](C)CO)C(=O)c2cc(NS(=O)(=O)c3ccccc3)ccc2O[C@@H](C)CCCCO[C@@H]1CN(C)S(=O)(=O)c1cn(C)cn1 | -6.2 | -0.7 | -3.7

Complete entries, quoted from the list. Screens in order: Ecoli rRNA inh	Ecoli rRNA inh OD600	Ecoli rRNA inh RFP
Results for `O=C(c1cccs1)N1C[C@@H](n2cc(C3CC3)nn2)[C@H](O)C[C@@H]1c1ccc(Cl)cc1` = -0.6	0.7	-2.1
Results for `COc1ccc(C(=O)NCCCNc2nc3cc(C)cc(C)c3cc2C#N)cc1` = -2.3	-3.1	-0.1

(listing goes on)
SMILES | Ecoli rRNA inh | Ecoli rRNA inh OD600 | Ecoli rRNA inh RFP
C[C@H](CO)N1C[C@H](C)[C@H](CN(C)Cc2ccc3c(c2)OCO3)OCCCC[C@H](C)Oc2ccc(NC(=O)Nc3cccc4ccccc34)cc2C1=O | -14.2 | -32.5 | 11.6
C[C@@H](NC(=O)C[C@H]1CC[C@@H](NC(=O)CN2CCOCC2)[C@H](CO)O1)c1ccccc1 | 0.2 | 8.2 | 1.1
CN1C(=O)c2cc(NC(=O)c3ccc(F)c(F)c3)ccc2OC[C@H]2O[C@H](CC(=O)N3CCOCC3)CC[C@H]21 | 3.3 | 1.5 | -1.7
O=C(CC1CC1)N1CC(=O)N2[C@H](C1)[C@H](c1ccc(C#Cc3ccc(F)cc3)cc1)[C@@H]2CO | -28.1 | -63.5 | 0.1
C[C@@H]1CCCCO[C@H](CN(C)C(=O)NC2CCCCC2)[C@@H](C)CN([C@@H](C)CO)C(=O)c2cc(NS(=O)(=O)c3ccccc3)ccc2O1 | -5.4 | -20.1 | 8.1
CCCC#Cc1ccc([C@@H]2[C@H]3CN(S(=O)(=O)Cc4ccccc4)CCCCN3[C@H]2CO)cc1 | -7.2 | -31.5 | 12.3
COCC#Cc1cnc2c(c1)C(=O)N([C@@H](C)CO)C[C@H](C)[C@H](CN(C)S(C)(=O)=O)O2 | 3.4 | 1.8 | -2.8
C[C@H](CO)N1C[C@H](C)[C@H](CN(C)S(=O)(=O)c2ccc(Cl)cc2)Oc2ccc(NS(=O)(=O)c3cccs3)cc2CC1=O | 1.6 | -14.9 | 2.7
CC1(C(=O)Nc2ccc3c(c2)OCO3)Cc2c(-c3ccccc3)ccnc2O1 (stereo unspecified) | 6.2 | 9.3 | 2.1
C[C@@H]1CN([C@@H](C)CO)S(=O)(=O)c2ccc(C#Cc3ccccn3)cc2O[C@@H]1CN(C)Cc1ccc(F)cc1 | 0.0 | -3.6 | 11.9
C[C@@H]1CN([C@H](C)CO)C(=O)c2cccc(NC(=O)c3ccc(-c4nccs4)cc3)c2O[C@H]1CN(C)S(=O)(=O)c1cccs1 | -15.4 | -6.6 | 0.0
CCCN(C)C[C@H]1OCCCC[C@@H](C)Oc2ccc(NC(=O)Nc3ccc(OC)cc3)cc2C(=O)N([C@@H](C)CO)C[C@H]1C | 2.7 | 8.2 | 1.7
O=C(Nc1ccc(C(F)(F)F)cc1)N1[C@@H]2CNC[C@H]1C2c1ccc(/C=C/c2ccccc2)cc1 (stereo partly specified) | -39.9&-60.8 | -48.6&-70.0 | -0.4&-8.2
C[C@H]1CN([C@@H](C)CO)S(=O)(=O)c2ccc(C3=CCCCC3)cc2O[C@H]1CN(C)C(=O)Cc1ccncc1 | 3.9 | -12.5 | 2.3
CN(C)CC(=O)N[C@H]1CC[C@H](CCNC(=O)C2CCCCC2)O[C@H]1CO | 1.7 | 0.8 | -3.0
CCOC(=O)C1=CCC2C(=O)N(C)C(=O)C12 (stereo unspecified) | 8.4 | 16.2 | -1.6
O=C(C[C@H]1C=C[C@@H](NC(=O)C2CC2)[C@H](CO)O1)NCc1ccccc1Cl | -0.4 | 0.4 | -1.0
COCC#Cc1ccc2c(c1)O[C@H](CN(C)C(=O)NC(C)C)[C@H](C)CN([C@@H](C)CO)S2(=O)=O | 2.2 | 1.2 | -3.7
CO[C@H]1CN(C)C(=O)c2cc(NS(=O)(=O)Cc3ccccc3)ccc2OC[C@@H](C)NC[C@@H]1C | 2.5 | -2.5 | 0.0
C[C@H]1CN([C@@H](C)CO)C(=O)c2cc(NC(=O)C3CCCCC3)ccc2O[C@@H]1CN(C)Cc1ccc(C(=O)O)cc1 | -2.1 | 4.9 | 0.6
CCC(=O)Nc1ccc2c(c1)OC[C@H](C)N(C(=O)c1cnccn1)C[C@@H](C)[C@H](OC)CN(C)C2=O | 4.4 | 1.2 | -3.8
Cc1ccc(S(=O)(=O)Nc2cccc3c2O[C@H](CN(C)C)[C@@H](C)CN([C@@H](C)CO)C3=O)cc1 | -1.2 | -5.6 | -0.1
O=C(NC[C@@H]1[C@H](c2ccccc2)[C@H](CO)N1CC1CC1)c1cccnc1 | 1.2 | -0.5 | -2.2
CCC(=O)Nc1ccc2c(c1)OC[C@@H](C)N(CC1CCOCC1)C[C@@H](C)[C@@H](OC)CN(C)C2=O | 3.0 | -5.7 | 2.0
C[C@H]1CCCCO[C@@H](CN(C)C(=O)c2ccccc2)[C@@H](C)CN([C@@H](C)CO)C(=O)c2cc(NS(=O)(=O)c3ccc(Cl)cc3)ccc2O1 | -1.2 | -0.1 | 0.5
COc1ccc(NC(=O)Nc2cccc3c2O[C@@H](CN(C)Cc2ccc(Oc4ccccc4)cc2)[C@@H](C)CN([C@@H](C)CO)C3=O)cc1 | -1.7 | -8.5 | -0.5
Cc1ccccc1-c1ccc([C@H]2[C@H]3CN(S(=O)(=O)c4cn(C)cn4)CCCCN3[C@H]2CO)cc1 | -3.0 | 5.6 | 2.8
Cc1ccc(Cc2c(-c3cccc(Br)c3)nc3ccc(Br)cn23)cc1 | -10.8 | -6.3 | -0.1
C[C@@H]1CN([C@@H](C)CO)C(=O)c2cc(NC(=O)Nc3ccc(F)cc3)ccc2O[C@@H]1CN(C)S(C)(=O)=O | 3.4 | 12.1 | 0.7
C[C@H]1CN([C@@H](C)CO)S(=O)(=O)c2ccc(C3=CCCC3)cc2O[C@@H]1CN(C)C(=O)CC1CC1 | 0.0 | -0.4 | -0.5
COc1ccccc1NC(=O)N1CC(=O)N2[C@H](CO)[C@@H](c3ccc(-c4ccc(F)cc4)cc3)[C@H]2C1 | 1.9 | 2.0 | 3.8
CC(C)CC#Cc1cnc2c(c1)C(=O)N([C@@H](C)CO)C[C@H](C)[C@@H](CN(C)S(=O)(=O)c1ccccc1)O2 | -2.4 | -8.9 | 4.8
O=C(CSc1nnc(-c2cccc(Br)c2)o1)NCC1CCCO1 (stereo unspecified) | 0.5 | 3.0 | 5.4
COCC(=O)N1C[C@H](C)[C@@H](OC)CN(C)C(=O)c2cc(NC(=O)c3ccc(F)cc3)ccc2OC[C@@H]1C | 4.2 | 5.1 | 1.0
O=C(C[C@@H]1C[C@H]2c3cc(NC(=O)c4ccc5c(c4)OCO5)ccc3O[C@H]2[C@H](CO)O1)NC1CCCC1 | -3.1 | -5.3 | 1.8
C[C@H](CO)N1C[C@H](C)[C@@H](CN(C)CC2CCCCC2)Oc2ccc(NC(=O)CCCN(C)C)cc2C1=O | 3.1 | 4.6 | 0.0
Cc1noc(C)c1S(=O)(=O)N(C)C[C@@H]1OCCCC[C@H](C)Oc2ccc(NS(=O)(=O)c3ccccc3)cc2C(=O)N([C@H](C)CO)C[C@@H]1C | -0.3 | 0.9 | 3.5
COCCNC(=O)C1CCCN(Cc2ccccc2)CC1 (stereo unspecified) | 6.3 | 22.1 | -0.3
O=C(C[C@H]1CC[C@@H](NC(=O)Nc2ccc(C(F)(F)F)cc2)[C@@H](CO)O1)NCc1ccccn1 | -4.1 | -3.2 | -0.7
C[C@@H]1CCCCO[C@@H](CN(C)Cc2ccc(Cl)c(Cl)c2)[C@@H](C)CN([C@@H](C)CO)C(=O)c2cc(NC(=O)NC3CCCCC3)ccc2O1 | 2.8 | 6.9 | -1.0
CN1CCN(C(=O)C[C@@H]2CC[C@@H](NC(=O)Cc3ccccn3)[C@H](CO)O2)CC1 | 1.8 | 2.0 | -0.3
